# Screening data (PubChem)
# ALR inh: blocks human ALR sulfhydryl oxidase activity | P55789 | purified ALR, DTT oxidation, H2O2 HRP-luminol luminescence | inhibition, % (no concentration beside the values) | 290,000 compounds, 3.8% hits | AID 485317;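 active means mean and each replicate at 75% or more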;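 further: stock transfer was 7.5 nL into about 7.5 µL; 0% = neutral wells and 100% = wells with inactivated enzyme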
# LANA-H2B inh: blocks KSHV LANA binding to histone H2A/H2B | Q9QR71 | cell-free LANA-H2A/H2B peptide, fluorescence polarization | inhibition, % (test concentration not listed) | 320,000 compounds, 0.6% hits; in the data active means inhibition mostly above about 10%, no sharp cut-off; inactive means mostly below about 6.7%;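 further: stock transfer was 7.5 nL into about 10 µL; 0% = median of vehicle wells and 100% = median of positive control wells; one replicate is shown; the record names a cut of 25% in any replicate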
# Target sequence (Q9QR71 whole entry, looked up): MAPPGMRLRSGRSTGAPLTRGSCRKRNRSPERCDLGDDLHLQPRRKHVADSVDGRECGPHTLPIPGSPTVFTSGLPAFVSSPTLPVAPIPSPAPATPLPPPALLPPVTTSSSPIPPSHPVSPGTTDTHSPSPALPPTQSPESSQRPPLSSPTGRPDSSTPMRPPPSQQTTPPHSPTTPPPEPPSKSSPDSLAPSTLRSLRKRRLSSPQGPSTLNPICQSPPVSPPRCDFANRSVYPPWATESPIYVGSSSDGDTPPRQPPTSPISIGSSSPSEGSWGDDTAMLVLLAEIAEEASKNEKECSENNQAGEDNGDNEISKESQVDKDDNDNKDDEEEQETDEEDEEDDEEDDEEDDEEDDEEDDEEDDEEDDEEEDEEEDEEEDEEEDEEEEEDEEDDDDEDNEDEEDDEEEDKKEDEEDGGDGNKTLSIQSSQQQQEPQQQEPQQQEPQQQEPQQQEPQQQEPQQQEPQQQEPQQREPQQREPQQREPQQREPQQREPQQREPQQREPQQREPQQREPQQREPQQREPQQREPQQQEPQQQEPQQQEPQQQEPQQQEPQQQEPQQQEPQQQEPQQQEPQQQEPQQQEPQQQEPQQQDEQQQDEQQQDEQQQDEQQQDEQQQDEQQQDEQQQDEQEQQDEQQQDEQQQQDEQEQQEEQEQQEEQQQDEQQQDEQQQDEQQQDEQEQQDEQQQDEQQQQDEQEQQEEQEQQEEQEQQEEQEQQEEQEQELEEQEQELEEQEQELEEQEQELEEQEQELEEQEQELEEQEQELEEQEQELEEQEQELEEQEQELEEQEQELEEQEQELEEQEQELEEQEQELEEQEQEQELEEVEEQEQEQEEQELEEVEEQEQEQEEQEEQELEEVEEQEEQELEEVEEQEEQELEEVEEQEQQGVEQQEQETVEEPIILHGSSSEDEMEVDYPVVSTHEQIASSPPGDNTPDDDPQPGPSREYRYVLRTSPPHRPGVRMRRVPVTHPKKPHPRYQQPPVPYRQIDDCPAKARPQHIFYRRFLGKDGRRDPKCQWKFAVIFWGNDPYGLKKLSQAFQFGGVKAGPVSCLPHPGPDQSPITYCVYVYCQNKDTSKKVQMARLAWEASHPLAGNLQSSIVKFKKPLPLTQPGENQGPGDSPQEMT
# Ecoli growth: inhibitors of Escherichia coli growth | OD600 absorbance (no concentration beside the values) | AID 1053175 | 330,000 compounds, 0.21% hits | OD600, 23 h; active compounds read low;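 active means OD600 absorbance below the run mean of sample wells minus 3.6 SD, in any replicate, cut at about 0.56 in these data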;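 further: stock transfer was 300 nL into about 60 µL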
# FGF22 binding: binders of recombinant human FGF22 by thermal shift | 340,000 compounds, 1.5% hits | calls only at 9.99 µM | Q9HCT0 | SYPRO orange fluorescence; percent of sucrose octasulfate shift, DMSO zero | AID 651658;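 active means melting point raised past a set limit in the mean and every replicate; three in four hits are not shown here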
# HNF4A DNA FP: change in binding of human HNF4 alpha to DNA | P41235 | HNF4a-FITC DNA binding, fluorescence polarization, 1 h | activity change, % at 10 µM | 360,000 compounds, 0.3% hits; in the data active means activity change above about 30%, passing the limit was not always enough;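 further: controls were the assay level and a saturating level of protein; the project sought stronger binding though the title names inhibitors; some compounds called inactive have numbers as strong as hits; positive values seem to mean higher polarization but the record does not say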
# B2AR ag: human beta-2 adrenergic receptor agonism by FAP; Am2.2-beta2AR cells, FAP receptor internalization, flow cytometry; reference of the scale not given here; response, % (concentration not given with the values); 340,000 compounds, 0.43% hits; AID 504454;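 active means response above a set limit, near 3 SD of response in nonfluorescent compounds, cut at about 42% in these data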;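 further: stock transfer was 100 nL into about 11 µL; a reference agonist was the positive control; negative values mostly stem from fluorescent compounds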
# UCH37 DUB inh: human UCH37 deubiquitinating enzyme inhibition | AID 588478 | 330,000 compounds, 0.33% hits | purified proteasome/UCH37, Ub-AMC cleavage fluorescence | inhibition, % (no concentration beside the values);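 active means mean of two replicates above 20%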;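 further: 0% = compound-free wells with enzyme and 100% = wells lacking proteasome; stock transfer was 100 nL into about 20 µL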
#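 Material: Human UCH37 enzyme supplied as purified proteasome complex | Schedule: 30 min preincubation with enzyme, 25 min cleavage at room temperature | Detection: AMC fluorescence 355/460 nm | Measure: % inhibition of Ub-AMC cleavage fluorescence | Controls: Wells without proteasome as full block, compound-free enzyme plus substrate as uninhibited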
# Starred values were filed as active, the others as inactive; i = inactive; · = no result given. These rows are one share of the data; the hit share may differ from the screen's.
SMILES,ALR inh,LANA-H2B inh,Ecoli growth,FGF22 binding,HNF4A DNA FP,B2AR ag,UCH37 DUB inh
O=C(O)C1CC=CCC1C(=O)N1CCN(c2nc(-c3ccccc3Cl)c3cc(Br)ccc3n2)CC1 (stereo unspecified),-1.6,4.0,0.644,·,-0.9,4.9,-29.2
CCCCCC(=O)N/N=C/c1ccc(N(C)C)cc1,90.0*,-3.8,·,·,3.0,2.1,·
CC(C)(C)c1cc(Cl)c(O)c(NC(=S)NC(=O)c2cccnc2)c1,3.8,1.7,0.716,i,7.7,-4.4,6.4
COc1ccc(OCC(=O)Nc2ccccc2-c2ccccc2)cc1,5.0,-1.8,0.675,i,18.9,-7.7,2.1
O=C(Nc1nnc(SCC(=O)N2CCOCC2)s1)C1CC(=O)N(c2ccc(F)cc2)C1 (stereo unspecified),2.9,1.4,0.68,i,4.1,1.8,6.5
COCCOC(=O)C1=C(C)Nc2cc(=O)[nH]c(=O)n2C1c1cccc([N+](=O)[O-])c1 (stereo unspecified),3.7,0.1,0.661,·,1.3,3.5,7.7
NC(=O)c1ccccc1NC(=O)CC12CC3CC(CC(Br)(C3)C1)C2,4.5,4.9,0.653,i,-1.6,-0.3,5.1
CCOC(=O)c1ccc(N2CCOCC2)c(NC(=O)COCC(=O)O)c1,-5.7,-0.2,0.686,i,1.8,-3.1,0.4
CCN(CC)S(=O)(=O)c1cccc(NC(=O)c2ccc(C#N)cc2)c1,-1.8,2.8,0.692,·,1.1,3.8,0.3
CCc1ccccc1N(CC(=O)NCCc1ccccc1)C(=O)CCC(=O)Nc1ccccn1,-13.6,5.4,0.678,i,2.9,-2.5,4.3
CCc1ccccc1NC(=O)CSc1nnc(CCNC(=O)OC(C)(C)C)o1,-15.4,3.9,0.659,i,-3.5,2.9,5.3
N#C/C(=C\c1ccc([N+](=O)[O-])o1)C(=O)Nc1ccc(F)cc1,-18.9,0.3,0.678,i,15.2,-59.5,-1.4
Cn1c(C(=O)N2CCN(c3ncccn3)CC2)cc2c(=O)n(C)c3ccccc3c21,-17.1,-1.1,0.739,i,-1.6,-0.6,3.0
COc1cc(OC)cc(C(=O)NCCN2CCOCC2)c1,-1.3,3.2,0.705,·,0.7,1.8,0.7
CCc1ccc(NC(=O)C(C)OC(=O)c2cc(=O)[nH]c3ccc(S(=O)(=O)Nc4ccc(F)cc4)cc23)cc1 (stereo unspecified),-3.1,1.4,0.704,i,-1.6,2.6,-4.7
NC(=NC(=O)c1cccc(C(F)(F)F)c1)c1ccc(C(F)(F)F)cn1,·,-0.6,0.686,i,0.1,-10.9,0.1
Cc1c(Cl)cccc1-c1ccc(CNCc2ccccn2)o1,·,-0.5,0.605,i,-0.2,-2.9,6.6
CN(C)CCNC(=O)c1ccc(CS(=O)(=O)c2c(Cl)cccc2Cl)o1,-4.6,5.6,0.663,i,3.6,1.1,2.0
CSc1ccc(CCNC(=O)Cn2ncc3c([nH]c4ccccc43)c2=O)cc1,-0.9,-8.9,0.631,i,-1.7,-2.8,0.7
COCCCNC(=O)c1ccc(Cn2c(=O)c3ccccc3n(CC(=O)NCc3ccco3)c2=O)cc1,-9.2,1.8,0.699,i,5.5,-1.6,-0.4
CCN(CC(=O)Nc1ccc(OC)cc1)C(=O)c1oc2c(Cl)cccc2c1C,·,·,0.669,i,-0.4,18.5,0.7
CC(C)(C)c1ccccc1NC(=O)c1c(O)c2cccc3c2n(c1=O)CC3,·,-3.1,0.748,·,·,·,0.6
CCOC(=O)Cn1cnc2c(cnn2-c2ccccc2)c1=O,·,9.4,0.622,i,-0.2,7.7,7.3
CCCSC(=S)c1c(C)[nH]n(-c2ccccc2)c1=O,47.3,-0.6,0.65,i,-3.6,3.5,17.6
COc1cc(C(=O)NCCC(=O)NC(C)C)cc(OC)c1OC,-11.4,-3.8,0.707,i,-1.5,9.2,2.1
Cc1ccc(C(=O)N2CCCC(C(=O)c3ccc(Oc4ccccc4)cc3)C2)cn1 (stereo unspecified),-1.1,-3.9,0.704,i,-3.9,-29.1,4.6
CC(Oc1ccc(F)cc1)C(=O)Nc1ccc(S(=O)(=O)NC2=NCCCCC2)cc1 (stereo unspecified),6.3,0.3,0.695,i,3.0,1.4,-0.7
CCCC(=O)Nc1cc(-c2nc3ncccc3o2)ccc1Cl,-0.2,-8.4,0.691,i,-0.9,14.1,-9.1
Cc1cc(NC(=O)c2ccc(Br)cc2)nc(C)n1,·,2.3,0.723,i,4.5,-2.8,0.7
O=C(Nc1c(C(=O)Nc2cccc3ccccc23)cnn1-c1ccccc1)c1ccco1,6.4,2.4,0.728,·,2.0,4.8,2.7
COc1ccc(CN(C(=S)Nc2ccccc2)C2CC(=O)N(c3ccc(Cl)cc3)C2=O)cc1 (stereo unspecified),-8.0,0.4,0.813,·,-1.9,6.2,3.8
COC(=O)c1ccccc1NC(=S)N1CCN(c2ccccn2)CC1,-6.2,-5.3,0.685,i,7.9,-12.2,4.9
O=C(N/N=C/c1ccccc1C(=O)O)c1ccccc1Br,-1.5,-1.6,·,i,-0.9,4.9,·
Cc1cc(OC(C)C(=O)N(Cc2ccco2)C2CCS(=O)(=O)C2)cc(C)c1Cl (stereo unspecified),-21.2,-0.1,0.648,·,-1.9,-8.6,1.1
Cc1ccc(Cl)cc1N(CC(=O)NCc1ccc2c(c1)OCO2)S(C)(=O)=O,-5.2,0.2,0.747,i,5.2,3.1,0.1
Cc1c(C(=O)OCC(=O)N(C)CC(=O)Nc2ccc(F)cc2)oc2ccccc12,4.9,·,0.635,i,1.2,-3.7,2.6
CCOCC(=O)N(CC)Cc1ccccc1,3.5,0.9,0.69,i,0.6,0.5,-0.8
CCN(CC(=O)Nc1ccc(OC)cc1)C(=O)Cc1ccsc1,-13.2,1.9,0.664,i,1.2,-1.8,1.7
O=C(O)CSCNC(=O)C12CC3CC(CC(C3)C1)C2,2.7,-6.4,0.751,·,1.2,10.8,1.0
O=C(NCc1cccc(CNC(=O)C(=O)NCc2ccco2)c1)C(=O)NCc1ccco1,-5.9,-1.2,0.736,i,-35.2,0.8,1.9
CC(C)OC(=O)c1cc2c(ccn2C)n1CC(=O)N1CCC(Cc2ccccc2)CC1,-2.9,2.8,0.736,·,-2.0,10.1,-0.1
N#CCC(=O)N/N=C\c1ccc(OC/C=C/c2ccccc2)cc1,-10.9,2.2,·,i,1.2,0.7,·
CC(C)c1ccc(NC(=S)Nc2cccc3ccccc23)cc1,-22.8,8.1,0.668,i,3.0,-3.4,0.3
Nc1nc(SCC(=O)NC2CCCCCC2)[nH]c(=O)c1-c1ccccc1,5.4,0.5,0.691,·,2.1,-5.7,-12.9
COc1cc(/C=C/C(=O)NCCN2CCOCC2)cc(OC)c1OC,-13.4,-1.6,0.739,·,-2.5,14.1,-13.3
CCOC(=O)COc1cc(-n2c(=S)[nH]c3ccccc3c2=O)c(Cl)cc1Cl,12.1,-0.3,0.688,i,5.8,20.9,4.2
COc1ccc(Br)cc1CNC(=O)CN1C(=O)C(c2ccccc2)Oc2cccnc21 (stereo unspecified),0.0,-0.8,0.718,i,6.4,-7.0,-2.4
CCOC(=O)c1ccccc1NC(=O)c1cn(-c2ccc(OC)cc2)c(=O)c2ccccc12,-6.5,5.9,0.712,·,4.2,-5.5,-8.5
Cn1cc(CN2CCCC(CO)C2)c(-c2ccc(Oc3ccccc3)cc2)n1 (stereo unspecified),-1.5,0.0,0.643,i,-2.2,-1.0,1.3
CC1(C)C[C@H]2C3=CCC4[C@@]5(C)CC[C@H](O)[C@@](C)(CO)C5CC[C@@]4(C)[C@]3(C)C[C@@H](O)[C@@]2(CO)[C@@H](O)[C@@H]1O (stereo partly specified),-10.6,3.0,·,i,2.1,9.5,0.1

# Remaining list, next part.
SMILES,ALR inh,LANA-H2B inh,Ecoli growth,FGF22 binding,HNF4A DNA FP,B2AR ag,UCH37 DUB inh
Cc1ccc(C(=O)CSc2nnc(C3CC3)n2C2CC2)s1,5.7,11.1,0.646,i,0.3,-1.1,1.9
O=c1oc2ccc(Cl)cc2nc1/C=C(\O)c1cccs1,-4.6,4.9,0.656,i,54.5*,1.1,5.4
NNc1ccc(S(=O)(=O)N2CCCCC2)cn1,·,1.8,0.659,i,-0.1,-1.6,3.2
CCC(C)[C@H](NC(=O)N1CC(=O)Nc2ccccc21)C(=O)N[C@H](Cc1c[nH]c2ccccc12)C(=O)O (stereo partly specified),·,0.3,0.708,i,-0.8,-0.7,1.1
COC(=O)c1ccc(S(=O)(=O)NC(C)(C)C)n1C,-8.3,0.7,0.67,i,6.6,-4.6,2.1
O=C(COc1ccc(C(=O)c2ccccc2)cc1)NCc1ccc(F)cc1,·,1.2,0.697,·,-5.8,-5.2,1.5
CC(=O)Oc1cccc(C(=O)Nc2cccc(C(=O)Nc3ccccc3C(=O)O)c2)c1,12.4,0.2,0.658,i,3.1,-1.8,3.4
COc1ccc(-c2cc(C(F)(F)F)nc(-n3ccnc3)n2)cc1,-10.2,7.8,0.692,i,-0.2,5.5,-22.4
CCCCC(=O)Nc1ccc(C(=O)NNC(=O)CCCOc2ccc(Cl)cc2Cl)cc1,-2.4,2.9,·,i,-3.6,-4.3,·
COC(=O)CN1C(=O)[C@H]2[C@@H](C3CC3)N3C(=O)CN(Cc4ccccn4)C(=O)[C@@]3(Cc3ccccc3)[C@H]2C1=O,-4.6,-1.8,·,i,-0.9,9.3,0.9
Cc1ccc(C(=O)NCc2ccc(Cl)cc2)o1,1.0,-1.1,0.669,·,1.2,5.9,0.4
C=CCN1C(=O)c2cccc3c(N4CCCCC4)ccc(c23)C1=O,-4.9,3.0,0.759,i,-21.7,-24.3,-6.1
Cc1cccc(NC(=O)c2ccc3nccnc3c2)c1C,-0.3,-0.1,0.635,i,-0.3,-3.8,1.0
COc1ccccc1C1C(C(C)=O)=C(O)C(=O)N1CCc1ccccc1 (stereo unspecified),-2.6,-2.2,0.619,·,-2.1,10.3,5.0
CCOC(=O)N1CCN(S(=O)(=O)c2ccc(C(=O)N(CCCN(C)C)c3nc4ccc(OC)cc4s3)cc2)CC1,-1.6,-2.0,0.679,i,7.2,0.8,4.0
Cc1c(C(=O)NCc2ccc(F)cc2)oc2ccc(S(=O)(=O)N3CCOCC3)cc12,-4.6,3.9,0.707,i,-1.2,5.0,2.0
CCN(CC(=O)NCCc1ccc(S(N)(=O)=O)cc1)Cc1ccccc1,-6.5,-13.4,0.686,i,4.8,-2.2,2.3
c1ccc(-c2ccc3sccc3n2)cc1,-9.2,-8.2,0.691,i,3.0,-4.5,1.2
C=CCn1c(NC(=O)c2ccc(C)cc2)nc2ccccc21,-1.8,1.2,0.695,i,-0.8,-13.4,-65.6
C/C=C/c1ccc(OCC(O)CNCC(c2ccc(OC)cc2)N(C)C)c(OC)c1 (stereo unspecified),-8.5,3.0,0.677,i,-0.8,-8.4,0.7

# Two entries picked at random from those above, as already listed:
SMILES,ALR inh,LANA-H2B inh,Ecoli growth,FGF22 binding,HNF4A DNA FP,B2AR ag,UCH37 DUB inh
Cc1c(C(=O)NCc2ccc(F)cc2)oc2ccc(S(=O)(=O)N3CCOCC3)cc12,-4.6,3.9,0.707,i,-1.2,5.0,2.0
Cn1c(C(=O)N2CCN(c3ncccn3)CC2)cc2c(=O)n(C)c3ccccc3c21,-17.1,-1.1,0.739,i,-1.6,-0.6,3.0

# Going on with the list:
SMILES,ALR inh,LANA-H2B inh,Ecoli growth,FGF22 binding,HNF4A DNA FP,B2AR ag,UCH37 DUB inh
CCCC(=O)c1c[nH]c(C(=O)NCCCN2CCOCC2)c1,-10.4,-11.6,0.709,·,0.2,-1.3,1.7
Cc1ccc(C)c(NC(=O)CSc2ccc(S(=O)(=O)N3CCCC3)cn2)c1,·,3.0,0.676,i,4.0,-5.0,4.4
COc1cc(N=c2oc3c(C)ncc(CO)c3cc2C(N)=O)cc(OC)c1OC,-5.6,-0.3,0.68,i,3.3,3.0,7.1
Cc1ccc(C(=O)C(C)OC(=O)C2CCN(c3ccc(C(F)(F)F)cn3)CC2)cc1C (stereo unspecified),-21.7,-7.9,0.721,i,0.5,2.4,-1.7
COC(=O)c1ccc(=O)n(Cc2ccc3c(c2)OCO3)c1,-5.7,-5.4,0.708,·,1.1,1.3,-1.2
